Screens (PubChem)
Mtb H37Rv: M. tuberculosis H37Rv growth inhibitors, H37Rv strain (AID 1626); 220,000 compounds, 0.95% hits; inhibition, % at 10 µM, or IC50 in µM where a hit was titrated; M. tuberculosis H37Rv growth inhibition; higher % means a stronger effect;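 active = confirmed in a dose series; inconclusive = inhibition above 80% but not taken into the dose series; inactive = below 80% or under 30% at every dose of the series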;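 note: bacteria incubated seven days before Alamar blue readout; 0% = bacteria only wells and 100% = bacteria with antibiotic wells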
Arbovirus inh: antivirals against arbovirus infection, primary screen, cell-based, full library, 10K replicate subset. arbovirus infection cell-based antiviral screen. 200,000 compounds, 0.37% hits. AID 1251, 2008. inhibition, % at 10 µM;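 active = inhibition from about 30%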;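 note: bluetongue infection of BSR cells; cell survival read as ATP light after 72 h; 0% = infected wells without compound and 100% = uninfected wells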
Mtb betalactam: beta-lactam sensitization of Mtb H37Rv, H37Rv. inhibition, % at 25 µM. M. tuberculosis H37Rv growth with meropenem, percent inhibition; hits of this screen are not shown here. 330,000 compounds, 0.27% hits. AID 434955, 2010;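 active = about 74% or more and at least 40 points above the plate without the antibiotic, then above 30% in a dose series; inconclusive = first-round hits that could not be retested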;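 note: growth measured after seven days incubation then overnight dye step; 0% = bacteria only wells and 100% = bacteria with antibiotic; twin plates without the antibiotic show which effects depend on it; some results filed as inactive read as strong as hits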
YopH inh: YopH tyrosine phosphatase inhibitors, primary screen, biochemical, fluorescence Ex485/Em525. inhibition, %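 (about 10 µM by stock and volumes)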. 140,000 compounds, 0.16% hits;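 active = inhibition of 50% or more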;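 note: controls were vehicle for no effect and minimum signal wells for full effect; inactives centre near -20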
RecA splice inh: Mtb RecA intein splicing inhibitors, primary screen, biochemical, fluorescence, HTS. inhibition, %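 (about 9 µM by stock and volumes)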. 290,000 compounds, 0.75% hits. AID 2221, 2009. cell-free RecA intein splicing; in the data active = inhibition above about 30%; inconclusive = no clear call, values can overlap the other calls;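 note: 0% = vehicle wells and 100% = reference inhibitor control wells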
Target sequence (P9WHJ3 whole entry, looked up, canonical isoform): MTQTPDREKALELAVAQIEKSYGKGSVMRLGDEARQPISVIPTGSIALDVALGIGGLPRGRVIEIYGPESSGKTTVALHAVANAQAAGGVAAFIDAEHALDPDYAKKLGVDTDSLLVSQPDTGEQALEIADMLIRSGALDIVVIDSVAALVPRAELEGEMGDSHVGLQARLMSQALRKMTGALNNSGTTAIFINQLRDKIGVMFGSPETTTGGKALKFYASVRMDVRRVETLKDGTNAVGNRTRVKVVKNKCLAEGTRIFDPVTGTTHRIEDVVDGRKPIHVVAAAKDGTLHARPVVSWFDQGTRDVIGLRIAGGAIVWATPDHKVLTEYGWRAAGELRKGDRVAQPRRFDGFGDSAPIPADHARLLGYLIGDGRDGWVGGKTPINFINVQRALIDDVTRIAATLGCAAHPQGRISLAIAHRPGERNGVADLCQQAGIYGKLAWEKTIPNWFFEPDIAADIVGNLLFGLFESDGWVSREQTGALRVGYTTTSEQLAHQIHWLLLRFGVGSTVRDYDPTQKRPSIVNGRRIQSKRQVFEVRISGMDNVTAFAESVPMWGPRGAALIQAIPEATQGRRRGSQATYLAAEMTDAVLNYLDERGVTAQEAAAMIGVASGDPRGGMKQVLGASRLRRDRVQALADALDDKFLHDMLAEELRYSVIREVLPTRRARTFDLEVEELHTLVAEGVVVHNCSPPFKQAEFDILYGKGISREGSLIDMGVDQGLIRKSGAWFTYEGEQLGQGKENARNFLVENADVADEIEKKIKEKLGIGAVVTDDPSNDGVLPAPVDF
Arbovirus inh repeat: recorded beside Arbovirus inh, whose call it bears; inhibition, %; measured here: 10K subset replicate screen; many hits read low in the repeat;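 first of two repeat runs on a subset; 0% = infected and 100% = uninfected wells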
The depositor's hits bear a star; ? = inconclusive; · = no result given. Not all compounds are listed, so the mix of outcomes need not match the whole.

Preview (3 entries):
SMILES	Mtb H37Rv	Arbovirus inh	Mtb betalactam	YopH inh	RecA splice inh	others
COc1ccccc1-n1cc(-c2ccc(C)cc2)[nH]c1=S	·	·	3	·	0.6
Cc1cc(Nc2ccc(C(=O)O)cc2)nc(N)n1	·	·	8	·	-2.8
COc1cccc2cc(C(=O)NCc3ccco3)c(=O)oc12	31%	3	47	-12	-1.5

The listing, previewed entries included:
SMILES	Mtb H37Rv	Arbovirus inh	Mtb betalactam	YopH inh	RecA splice inh	others
COc1ccccc1-n1cc(-c2ccc(C)cc2)[nH]c1=S	·	·	3	·	0.6
Cc1cc(Nc2ccc(C(=O)O)cc2)nc(N)n1	·	·	8	·	-2.8
COc1cccc2cc(C(=O)NCc3ccco3)c(=O)oc12	31%	3	47	-12	-1.5
COc1ccc(CC(=O)O/N=C(\N)Cc2ccc(OC)cc2)cc1	-7%	-2	2	-1	0.6
N#CCOC(=O)C1CSC2(c3ccc(Br)cc3)CCC(=O)N12 (configuration not stated)	-2%	13	-3	·	3.7
Cc1ccc2cccc(S(=O)(=O)NC3CCS(=O)(=O)C3)c2n1 (configuration not stated)	0%	8	-10	-25	0.4
COc1ccc(C(=S)N2CCCC2)cc1C	-3%	0	0	-32	-0.1
O=C(c1ccc(Cl)cc1)N1CCC(C(=O)N2CCCc3ccccc32)CC1	·	·	-19	·	0.4
Cc1ccc2cc(CCNS(=O)(=O)c3ccc(Br)cc3)c(=O)[nH]c2c1C	·	·	-6	·	1.6
COc1ccc(/C=N/NC(=O)C(=O)N2CCCCCC2)cc1[N+](=O)[O-]	·	·	-4	·	-2.0
CN(CC(=O)Nc1cccc(F)c1)CC(=O)Nc1ccccc1[N+](=O)[O-]	0%	13	4	·	-3.4
COc1ccccc1NC(=O)C(C)OC(=O)CCCOc1ccccc1 (configuration not stated)	·	·	56	·	4.4
Cc1cc(-c2nc(C)c(C(=O)NN)s2)no1	-5%	·	37	·	-0.1
C=CCn1c(O)c(C=Nc2ccc(CN3CCCCC3)cc2)c(=O)[nH]c1=S	-5%	·	7	·	1.6
COc1ccccc1N1CCN(S(=O)(=O)c2ccc(F)cc2)CC1	-4%	5	-4	-35	3.3
COc1ccc(C(c2nnnn2Cc2cccs2)N2CCC(C(N)=O)CC2)c(OC)c1 (configuration not stated)	-3%	1	-4	-39	-0.8
Nc1ccc(C(=O)OCc2csc(-c3ccccc3)n2)cc1[N+](=O)[O-]	0%	6	1	-35	1.8
CC(C)CC(NC(=O)OC(C)(C)C)C(=O)O (configuration not stated)	-4%	·	-1	·	1.9
O=C(CC(=O)N/N=C\c1ccc([N+](=O)[O-])cc1)NCCc1ccccc1	0%	2	11	·	6.3
CSc1sc(C(=O)N2CCc3ccccc32)cc1S(=O)(=O)C(C)C	·	·	?	·	3.2
C/C=C/C(=O)Nc1nnc(C2CCCCC2)s1	-5%	-4	5	·	0.8
Cn1c(CNc2nc(-c3ccccc3)cs2)nnc1SCC(=O)c1ccccc1	6%	13	-7	-33	2.0
COc1ccc(S(=O)(=O)Nc2c(C)n(C)n(-c3ccccc3)c2=O)cc1C(=O)O	·	·	9	·	-3.8
CC1CCCC(C)N1C(=O)CSc1nnc(NC(=O)c2cccs2)s1 (configuration not stated)	-13%	13	-8	-34	·
Cc1ccc(C2CC(c3cccc(Br)c3)Nc3nnnn32)cc1 (configuration not stated)	-5%	-8	-6	-26	-2.6
More results
SMILES	Mtb H37Rv	Arbovirus inh	Mtb betalactam	YopH inh	RecA splice inh	others
Cc1ccnc(NS(=O)(=O)c2ccc(NC(=O)c3ccc4c(c3)OCCO4)cc2)n1	0%	-3	3	·	-2.7
Cc1ccc(SCC(=O)NC(=O)c2ccc(S(=O)(=O)N(C)C)cc2)cc1C	-3%	0	0	5	-2.4
COC(=O)c1ccc(OCC(=O)NC2CCCCCC2)cc1	·	·	5	·	-1.8
COc1ccc(OC(=O)c2cnc3n(c2=O)CCS3)cc1	-5%	·	-4	·	-2.5
NC(=O)[C@@H]1CCOc2c(I)cc([N+](=O)[O-])cc2C(=O)N[C@@H](CO)C(=O)NCC(=O)N1	-9%	-1	0	-39	0.7
CCOC(=O)c1sc(NNC(=O)c2ccc(F)cc2)nc1C	?	·	87	·	-1.5
CCOc1cc(-c2nc(-c3ccc(C)nc3OC)no2)cc(OCC)c1OCC	0%	1	·	-5	-3.5
C/C(=N\Nc1cc(N2CCOCC2)ncn1)c1cccc([N+](=O)[O-])c1	4%	7	-11	·	3.6
COc1ccc(C(=O)Nc2cccc(C)c2)cc1	-6%	2	3	-48	-1.4
CCCOc1ccc(C(=O)Nc2ccc(S(=O)(=O)Nc3onc(C)c3C)cc2)cc1	9%	1	2	·	0.3
CCc1ccc2[nH]c(=O)c(CN(Cc3ccccc3)Cc3nnnn3Cc3ccco3)cc2c1	9%	-5	-14	-21	28
O=C(NCc1ccccc1)c1ccccc1CO	0%	4	3	-18	-1.1
CC(=O)Oc1ccc(C(=O)Nc2nnc(C)s2)cc1	-5%	4	5	10	-1.5	Arbovirus inh repeat=-2
COc1cccc(/C=N/NC(=O)c2[nH]nc3c2CCc2ccccc2-3)c1	-5%	·	72	·	4.2
O=C(CC(c1ccccc1)c1ccccc1)NCc1cccnc1	-4%	-1	2	7	2.5
O=C(CN1C(=O)CCSc2ccc(S(=O)(=O)N3CCCC3)cc21)Nc1ccccc1Cl	·	·	-3	·	0.4
Cc1ccc(NCCC(=O)c2cccs2)cc1	25µM*	-2	100	·	2.3
C/C(=N/NC(=O)NC12CC3CC(CC(C3)C1)C2)c1ccccc1	·	·	-1	·	-0.4
Cc1oc(C(=O)O)cc1COc1ccc2c3c(c(=O)oc2c1C)CCC3	-12%	6	-27	-1	-0.5
CCCCN(CC)Cc1ccc(CNC(=S)Nc2ccc(C)cc2Cl)o1	-3%	-3	3	·	-0.6
Cc1cc(NC(=O)Nc2ccc(OCc3ccccc3)cc2)n(C)n1	·	·	65	·	-1.8
Oc1oc(-c2ccco2)nc1C=Nc1ccccc1	8%	-2	16	-50	6.4
CCc1ccc2[nH]c(=O)c(CN(CCN(CC)CC)C(=S)NCc3ccco3)cc2c1	-5%	-11	-3	·	0.2
COCCN(CCOC)S(=O)(=O)c1ccc(C(=O)Nc2nnc(CSC)o2)cc1	3%	20	2	·	-3.5
COc1cc(C(=O)N2CCN(CC(O)COc3ccccc3)CC2)cc(OC)c1OC (configuration not stated)	·	·	5	·	-2.5
Continued:
SMILES	Mtb H37Rv	Arbovirus inh	Mtb betalactam	YopH inh	RecA splice inh	others
COC(=O)c1ccc(C(=O)OC)c(NC(=O)COC(=O)CC2CC3CCC2C3)c1 (configuration not stated)	6%	2	-7	-18	3.0
Cc1cccc(COc2ccccc2C(=O)NC2CCC(O)CC2)c1 (configuration not stated)	·	·	4	·	-5.3
CCOc1ccc2cc(S(=O)(=O)n3ccnc3C)ccc2c1	5%	4	-7	-13	-0.4
COc1ccc(-n2cnc3cc(C(=O)NCCN4CCOCC4)ccc32)cc1	-1%	2	-2	·	2.0
CCCOc1cccc(/C=N/NC(=O)c2csc(C)c2C)c1	-7%	6	-1	15	0.1
CC(=O)C1=C(O)C(=O)N(c2ccc(O)cc2)C1c1ccccc1F (configuration not stated)	·	·	0	·	-0.8
CS(=O)(=O)Nc1ccccc1C(=O)NCc1ccco1	0%	5	-9	-11	4.1
CCCC(C)C(=O)NCc1ccncc1 (configuration not stated)	-8%	-3	-6	·	-0.9
CC(C)(C)C(=O)Cn1ncc(N2CCOCC2)c(Br)c1=O	2%	5	-5	·	0.4
O=C(Nc1ccc(F)cc1)c1sccc1SCc1cccc(C(F)(F)F)c1	12%	-5	6	-29	11
O=c1[nH]c(CN2CCN(S(=O)(=O)c3cccs3)CC2)nc2c(Br)cc(Br)cc12	19%	-5	50	·	-0.8
COc1ccc(S(=O)(=O)N2CCCC(C(=O)O)C2)cc1Cl (configuration not stated)	1%	2	-6	-39	-1.0
Cc1ccc(CNCCCSc2ncccn2)cc1	·	·	2	·	1.2
CCOc1ccc(C(=O)NC(C(=O)NCc2cccnc2)C(C)C)cc1 (configuration not stated)	·	·	-1	·	0.6
CCn1cc(C(=O)N[C@H](C(=O)NCCCn2ccnc2)C(C)C)c(=O)c2cc3c(cc21)OCO3	·	·	9	·	-3.6
CC(C)(C)NC(=O)NC(=O)COC(=O)COc1ccc2c(c1)CCC2	-16%	4	-1	-39	2.3
COc1cc(CC(=O)OCC(=O)Nc2sccc2C(N)=O)cc(OC)c1OC	-4%	16	1	·	-1.0
Cc1cccc(/C=N/n2c(-c3ccncc3)n[nH]c2=S)c1	0%	-1	-10	-18	1.0
COc1ccc(-n2c(-c3ccc(Br)cc3)n[nH]c2=S)cc1	·	·	6	·	1.2
Cc1nn(-c2cc(N3CCCCC3)ccc2[N+](=O)[O-])c(=O)c2ccccc12	-6%	-19	6	-5	0.0
COc1cccc(CN2C(=O)C(C)Oc3ccccc32)c1 (configuration not stated)	·	·	1	·	1.3
COc1ccc(OC)c(NC(=O)C2C3C=CC(C3)C2C(=O)NCc2ccccn2)c1 (configuration not stated)	-5%	0	5	-29	-0.2
Cn1c(CN2CCOCC2)nnc1SCC(=O)NCCc1ccccc1	-3%	3	-9	-35	-0.7
COCCN(CCOC)Cc1c(C)[nH]c2ccccc2c1=O	-8%	6	-3	5	-1.2	Arbovirus inh repeat=-4
C/C(CC(=O)NCc1ccco1)=N\NC(=O)c1ccc([N+](=O)[O-])cc1Cl	·	·	-10	·	69*
Additional structures.
SMILES	Mtb H37Rv	Arbovirus inh	Mtb betalactam	YopH inh	RecA splice inh	others
Cc1cc(OCC(=O)N2CCC[C@@H]2C(=O)O)c2c(C)c(C)c(=O)oc2c1	·	·	0	·	6.8
CCC(C)NC(=O)c1ccc(CN2CCc3ccccc3C2)cc1 (configuration not stated)	·	·	-12	·	0.6
COc1ccc(OCC(=O)Nc2ccc(N3CCC(C)CC3)cc2)cc1	7%	-7	-8	·	-3.0
NS(=O)(=O)c1ccc(CNS(=O)(=O)c2ccc(Cl)nc2)cc1	2%	2	-4	·	-0.3
CCOC(=O)C1=C(C)NC(=O)NC1c1ccc(Cl)cc1Cl (configuration not stated)	-2%	1	-11	-2	0.2
COc1ccc(CNC(=O)COC(=O)CCCOc2ccc(Cl)cc2Cl)cc1	0%	-8	7	-12	0.3
Cc1cc(C)n(-c2nc(NCC(C)O)c3c4c(sc3n2)CCCC4)n1 (configuration not stated)	9%	3	51	-17	1.8
COc1ccc(Br)cc1CN(C)CC(O)COc1ccc(Br)cc1 (configuration not stated)	·	·	93	·	6.1
CSc1ncc(CN2CCc3c([nH]c4ccccc34)C2c2cccc(C)n2)cn1 (configuration not stated)	14%	·	15	·	2.0
CCOc1ccccc1C1C(C#N)=C(N)Oc2cc(C)n(C)c(=O)c21 (configuration not stated)	-8%	0	6	-24	·
COc1ccc2c(c1)NC(c1ccc(N(C)C)cc1)c1cccn1-2 (configuration not stated)	6%	·	58	·	-128
Cc1ccc(C(=O)N/N=C/c2cccc(OC(=O)/C=C/c3ccco3)c2)cn1	3%	5	-6	·	0.3
Cc1cc(OCCCCOc2ccc(S(N)(=O)=O)c(C)c2)ccc1S(N)(=O)=O	·	·	14	·	6.1
C=CCn1c(O)c(N=NC(=S)Nc2cccc(C)c2)c2ccccc21	2%	-20	0	-10	0.8
N#C/C(=C\c1cccnc1)C(=O)Nc1ccc(Cl)cc1	·	·	-1	·	0.2
COc1cc(/C=C/C(=O)OCC(=O)NC(=O)NC(C)(C)C)cc(OC)c1OC	11%	13	0	·	-4.5
Cc1ccc(S(=O)(=O)NNC(=O)c2ccc(F)cc2)cc1	·	·	10	·	-1.5
Cc1csc(NC(=O)CSc2nnc(-c3ccoc3C)o2)n1	10%	-15	69	-39	-1.4
Cc1nc(-c2nc(-c3c(C(=O)NNC(=O)Nc4cccc(Cl)c4)noc3C)cs2)cs1	3%	·	55	·	4.6
CCn1cc(CN2CCN(Cc3ccsc3)C(CCO)C2)cn1 (configuration not stated)	-2%	1	1	·	2.1

Six records drawn at random from those above, as already listed:
SMILES	Mtb H37Rv	Arbovirus inh	Mtb betalactam	YopH inh	RecA splice inh	others
Nc1ccc(C(=O)OCc2csc(-c3ccccc3)n2)cc1[N+](=O)[O-]	0%	6	1	-35	1.8
CCOC(=O)C1=C(C)NC(=O)NC1c1ccc(Cl)cc1Cl (configuration not stated)	-2%	1	-11	-2	0.2
CCCC(C)C(=O)NCc1ccncc1 (configuration not stated)	-8%	-3	-6	·	-0.9
Cc1ccc(S(=O)(=O)NNC(=O)c2ccc(F)cc2)cc1	·	·	10	·	-1.5
COCCN(CCOC)Cc1c(C)[nH]c2ccccc2c1=O	-8%	6	-3	5	-1.2	Arbovirus inh repeat=-4
COc1ccc(OC)c(NC(=O)C2C3C=CC(C3)C2C(=O)NCc2ccccn2)c1 (configuration not stated)	-5%	0	5	-29	-0.2
